# Screens as filed in PubChem BioAssay.
# StopGo FLuc: lowers the firefly signal of an FMDV 2A StopGo reporter; HEK cells with a luciferase reporter of 2A StopGo recoding; Potency, µM (series often up to 57.5 µM), inactives show at the highest dose signal change, negative = less light; hit rate 0.23% among 120,000; AID 1745856; active = well fitted falling curve with a large enough effect; inconclusive = small, poorly fitted or top-dose-only effect; inactive = no such curve, though single readings can be large or run the other way; also: nearly all actives have a fitted effect of over 60% in size; overnight with compound
# 2A Renilla: lowers the Renilla signal of an FMDV 2A StopGo reporter; HEK cells with a luciferase reporter of 2A StopGo recoding; Potency, µM (doses to about 57.5 µM), inactives show at the top dose signal change, negative = less light; hit rate 0.32% among 120,000; active means well fitted falling curve with a large enough effect; inconclusive means small, poorly fitted or top-dose-only effect; inactive means no such curve, though single readings can be large or run the other way; also: nearly all actives have a fitted effect of over 55% in size; overnight with compound
# * = called active by the depositor; ? = inconclusive; & = joins results of further samples; [ ] = remark or other dose. % is scaled to controls: 0 for no effect and ±100 for the full control effect; potency is read from the fitted curve at half-maximal effect.
SMILES | StopGo FLuc | 2A Renilla
Cc1ccc(C(=O)OCC(=O)c2c[nH]c3ccccc23)cc1S(=O)(=O)N1CCOCC1 | -12% | -16%
CCCCN(C)S(=O)(=O)c1c(C(=O)OCC)c(C)n(C)c1C | 2% | 33%[activator]
COc1cc(C2C3CCCCC3(O)CCN2Cc2ccc(Cl)cc2)ccc1O (stereo not drawn) | 20% | 30%
CNc1nc2c(c(=O)[nH]c(=O)n2C)n1Cc1cccc(Br)c1 | 37%[activator] | 30%[activator]
Cc1ccc(NS(=O)(=O)c2ccc(N/N=C/c3ccc([N+](=O)[O-])o3)c([N+](=O)[O-])c2)c(C)c1 | ? | ?
COc1ccc(OC)c(CNC(=O)c2ccc3noc(-c4ccc(C)cc4)c3c2)c1 | 15% | -5%
COc1ccc(C(=O)Nc2cccc(-c3nc4cc(C)ccc4o3)c2)cc1OC | 44%[activator] | -7%
Cc1ccc(S(=O)(=O)Nc2ccc(Cl)c3cccnc23)cc1C(=O)O | 14% | 17%
CCN(CC)CC1CCN(C(=O)c2ccc3cc[nH]c3c2)CC1 | -13% | -10%
COc1ccc(OC)c(NC(=O)CC2SCCNC2=O)c1 (stereo not drawn) | 48%[activator] | 29%
Cc1ccc2c(=O)c(-c3nc(-c4cccc(F)c4)no3)cn(CC(=O)NCc3ccco3)c2n1 | 0% | 12%
COc1cccc(CNC(=O)c2oc3c(c2C)-c2nn(Cc4cccc(Cl)c4)cc2CC3)c1 | ? | ?
COc1ccc(/C=C/C(=O)c2ccc(C(=O)O)s2)cc1OC | 22% | 0%
COc1ccc(Cl)cc1NC(=O)c1cc(=O)c2cc(C)cc(C)c2o1 | -14% | -6%
Cc1cccc(NC(c2cccc(Cl)c2)c2ccc3cccnc3c2O)n1 (stereo not drawn) | ? | -3%
C#CCN1CCC(C(=O)NCCN2CCCCCC2)CC1 | -13% | -10%
Cc1cccc(-n2ncc3c(NNC(=O)c4ccccc4Cl)ncnc32)c1 | -11% | -7%
CC1(C)Cc2nc(-c3ccccc3)nc(SCC(=O)N3CCOCC3)c2CO1 | -7% | -4%
COCCNc1nc(-c2ccccc2)c2cc(Br)ccc2n1 | -2% | -6%
CSc1nc2sc3c(c2c(=O)n1-c1ccc(C)cc1)CCCC3 | 0% | -5%
CC1CCN(Cc2c(O)ccc3c(=O)c(-c4cccc(Cl)c4)c(C(F)(F)F)oc23)CC1 | 3% | -4%
COc1ccc(N2CCN(C(=O)c3cccc(-n4c(C)nc5cccnc54)c3)CC2)cc1 | ? | -30%
COc1ccc(-c2noc(CCC(=O)NCc3ccc(C)cc3)n2)cc1 | 41%[activator] | 6%
CC(=O)NCC(=O)N(c1ccc(C)cc1)C1(C(=O)Nc2c(C)cccc2C)CCCCC1 | 2% | 1%
O=C(Cn1nc(-c2cccs2)c2ccccc2c1=O)NCCc1ccccc1 | 0% | 3%
Cc1[nH]c2ccccc2c1CC(=O)N1CCN(S(=O)(=O)c2ccccc2F)CC1 | -20% | -10%
N#CC1=C(N)OC2=C(C(=O)CC(c3ccccc3)C2)C1c1cccc(F)c1 (stereo not drawn) | 4% | 22%
CCC(=O)c1sc(Nc2ccc(Cl)cc2C)nc1N | 152%[activator] | -7%
COc1ccc(CCNC(=O)Cc2c(C)c3c(cc(C)c4c(C)c(C)oc43)oc2=O)cc1OC | -10% | -6%
Cc1cccc(NC(=O)CNC(=O)c2nccnc2N)c1C | 3% | -7%

# Full records, quoted from the list. Values in the order: StopGo FLuc	2A Renilla
# COc1ccc(C(=O)Nc2cccc(-c3nc4cc(C)ccc4o3)c2)cc1OC is listed with 44%[activator]	-7%
# Cc1[nH]c2ccccc2c1CC(=O)N1CCN(S(=O)(=O)c2ccccc2F)CC1 is listed with -20%	-10%
# N#CC1=C(N)OC2=C(C(=O)CC(c3ccccc3)C2)C1c1cccc(F)c1 (stereo not drawn) is listed with 4%	22%
# O=C(Cn1nc(-c2cccs2)c2ccccc2c1=O)NCCc1ccccc1 is listed with 0%	3%
# COc1ccc(-c2noc(CCC(=O)NCc3ccc(C)cc3)n2)cc1 is listed with 41%[activator]	6%

# Further results follow.
SMILES | StopGo FLuc | 2A Renilla
CCc1ccc(CC)c(-c2csc(N)n2)c1 | 2% | 2%
COc1ccc(C(C)=O)cc1CN1CCCc2ccccc21 | 0% | 3%
O=C(COc1ccccc1)N(Cc1ccc(-c2cccc(Cl)c2)o1)C1CCS(=O)(=O)C1 (stereo not drawn) | -7% | 1%
CCc1ccc(Oc2c(C(F)(F)F)oc3c(CN4CCC(C)CC4)c(O)ccc3c2=O)cc1 | -11% | -6%
CCC(CC)C(=O)Nc1sccc1C#N | -3% | -2%
Cc1nc2cc(NC(=O)c3ccccc3C(F)(F)F)ccc2o1 | 70%[activator] | 32%[activator]
O=C(Cc1ccccc1)N(Cc1cccnc1)c1nc2c(F)cccc2s1 | 36%[activator] | 78%[activator]
Cc1ccc(Nc2cc(C)nc3c(C)c(C)ccc23)c(C)c1 | -5% | -11%
Cc1ccc(NC(=O)c2c(Nc3ccccc3C)sc(C(=O)c3ccccc3)c2N)cc1 | 11% | 39%[activator]
CN(CC(=O)NCc1nc(-c2ccccc2)no1)S(=O)(=O)c1cc(Cl)ccc1Cl | 7% | 39%[activator]
O=C(Nc1cc(Cl)cc(Cl)c1)c1ccc(F)c(S(=O)(=O)N2CCCCCC2)c1 | 22% | 6%
COc1cc(C)ccc1OCCSc1nc2ccc(NC(=O)c3ccccc3F)cc2s1 | -3% | 5%
CCNC(=O)CN1CCN(C(=O)C2CCN(c3nc4ccccc4o3)CC2)CC1 | 52%[activator] | 17%
O=C(NCCC(=O)N1CCN(c2ncccn2)CC1)c1ccc(Br)cc1 | 126%[activator] | 11%
CN(C)CCNc1oc(COc2cccc(Cl)c2)nc1C#N | 2% | -12%
CCN(CC)C(=O)COc1ccc2c(C)cc(=O)oc2c1 | 47%[activator] | 19%
CCc1ccc(S(=O)(=O)c2nnn3c2nc(N2CCC(C)CC2)c2cc(Cl)ccc23)cc1 | 5% | 4%
CCN(CC)C(=O)c1sc(NC(=O)C2c3ccccc3Oc3ccccc32)c(C#N)c1C | -1% | -5%
O=C(Nc1cccc(-c2nc3ccccc3o2)c1)c1cccc(Br)c1 | 16%&-20% | 6%&-12%
CN(C)CC(C#N)C(O)c1ccccc1 (stereo not drawn) | 6% | -9%
CCCCOc1ccc(CNC(=O)c2cnc3sc(N4CCC(C)CC4)nn3c2=O)cc1 | 19% | 25%
COc1cccc(Nc2sc(C(=O)c3ccc(F)cc3)c(N)c2C(=O)NCc2ccc(Cl)cc2)c1 | -2% | -10%
CC1CCN(C(c2ccc(F)cc2)c2sc3nc(-c4ccco4)nn3c2O)CC1 (stereo not drawn) | 2%&36% | 161%&133%[activator]
CCOc1c(Br)cc(C(=O)OC(C)C(=O)c2ccc(F)c(F)c2)cc1OC (stereo not drawn) | 5% | 9%
CCc1cccc(C)c1NC(=O)CSc1nc2ccncc2[nH]1 | -10% | 0%
CC1CCCC(NC(=O)c2cc3c(Cl)nc4ccccc4c3s2)C1C (stereo not drawn) | -8% | 21%
CCc1cccc(NC(=O)CNS(=O)(=O)c2ccc3nc(C)sc3c2)c1 | 0% | 72%[activator]
COc1ccccc1-n1cnnc1SCC(=O)NC(C)c1ccc(Br)cc1 (stereo not drawn) | 2% | 12%
CCCn1nc(C(=O)N2CCc3ccccc3C2)c2ccccc2c1=O | 5% | 60%[activator]
Cn1c(Cl)cnc1COC(=O)CC12CC3CC(CC(Br)(C3)C1)C2 | -4% | 11%

# The results go on:
# Value order: StopGo FLuc | 2A Renilla
COc1ccc(-c2cc(C(F)(F)F)n3nc(C(=O)Nc4sc5c(c4C(=O)OC(C)C)CCCC5)cc3n2)cc1OC
 : -16% | 10%
CCOC(=O)Cn1c(=O)n(-c2ccccc2OC)c2nc(-c3ccccc3F)nc(C(N)=O)c21
 : 27% | 29%
COCc1nn2c3c(cnc2c1-c1cccc(Cl)c1)C(=O)CC(c1ccc(OC)c(OC)c1)C3 (stereo not drawn)
 : 0% | -3%
COc1cccc(NC(=O)Cn2c(=O)n(CCCC(=O)NCc3ccc4c(c3)OCO4)c(=O)c3ccccc32)c1
 : -8% | -4%
CC(C)(Oc1ccc(Cl)cc1)C(=O)O
 : -10% | 0%
CC1CC1C(=O)NCCC12CC3CC(CC(C3)C1)C2 (stereo not drawn)
 : 0% | 8%
CCOc1ccc(-c2nnc(N3CCOCC3)c3ccccc23)cc1
 : -3% | -6%
CCC(NC(=O)c1cccnc1)C12CC3CC(CC(C3)C1)C2 (stereo not drawn)
 : -14% | -9%
CC(=O)N(c1nc(C)c(C(=O)Nc2ccc3cc[nH]c3c2)s1)C(C)C
 : 189%[activator] | -1%
COc1ccc(NC2c3ccccc3C(=O)N2c2cccnc2)cc1Cl (stereo not drawn)
 : 4% | 0%
COc1cccc(NC(=O)Cn2nnc(-c3nc(-c4ccccc4)no3)c2N)c1
 : 0% | -5%
CCC(=O)N1N=C(c2cc(Cl)ccc2Cl)CC1c1ccc2nccnc2c1 (stereo not drawn)
 : 15% | 2%
Cc1cccc(N(C)C(=O)Cn2cc(C#N)c3ccccc32)c1
 : -6% | -6%
Cc1ccc(C(=O)COC(=O)CCc2c[nH]c3ccccc23)c(C)c1
 : 32% | 3%
N#Cc1nc(-c2ccc(S(=O)(=O)N3CCCC3)cc2)oc1N1CCC(Cc2ccccc2)CC1
 : -11% | -7%

# More compounds follow.
# Value order: StopGo FLuc | 2A Renilla
O=C(Nc1ccc2nc(N3CCN(c4cccc(Cl)c4)CC3)cc(C(=O)O)c2c1)c1ccccc1
 : 2% | 1%
C1=CC2C3C=CC(C3)C2C1 (stereo not drawn)
 : -13%[22.9 µM] | -10%[114 µM]
Cc1ccc(NC(=O)C(C)N(c2ccc(C)c(C)c2)S(C)(=O)=O)cc1C (stereo not drawn)
 : -17% | -2%
COc1ccc(CNC(=O)Cn2c(=O)c(CNc3ccc(C)cc3)cc3cc4c(cc32)OCCO4)cc1
 : 83%[activator] | 5%
O=C(Nc1ccc2nn(-c3ccccc3)nc2c1)c1ccc(-c2cccc(Cl)c2)o1
 : 21% | 322%[activator]
Cn1c(=O)c2c(ncn2CC(=O)Nc2ccc3c(c2)CCC3)n(C)c1=O
 : 65%[activator] | 13%
COc1ccc(-c2nc(CSCC(=O)NCC(OC)OC)c(C)o2)cc1OC
 : -8% | -2%
CCCCCCCCOc1ccccc1C(=O)Nc1ccc(C(=O)OCC[N+](C)(CC)CC)cc1
 : 11% | -8%
Cc1cc(C)c(NC(=O)CN(C)CC(=O)NC(=O)NCc2ccccc2)c(C)c1
 : -7% | 6%
COc1ccccc1CNC(=O)CN1C(=O)COc2ccc(S(=O)(=O)NC3CCCC3)cc21
 : -3% | 84%[activator]
N#Cc1cccc(C(=O)NCCc2cccnc2)c1
 : 16% | 3%
CO[C@@]1(NC(=O)CSCC#N)C(=O)N2C(C(=O)O)=C(CSc3nnnn3C)CS[C@@H]21
 : -14%[11.5 µM] | -8%
CC(C)c1nc(CN(C)C(=O)N[C@H](C(=O)N[C@@H](Cc2ccccc2)C[C@H](O)[C@H](Cc2ccccc2)NC(=O)OCc2cncs2)C(C)C)cs1
 : -14%[11.5 µM] | 3%
Cc1cccc(C)c1NC(=O)c1ccc(N)cc1
 : -3%[11.5 µM] | -9%
COC(=O)c1cc(-c2ccc(OC(C)C)cc2)nc2ccccc12
 : 181%[activator] | 45%[activator]

# (next part)
# Value order: StopGo FLuc | 2A Renilla
CCc1cc(=O)oc2cc(OS(=O)(=O)c3cccc(C(F)(F)F)c3)ccc12
 : 6% | 4%
CC(C)CCNC(=O)c1cc2n(n1)CC(C)(C(=O)NCCC(C)C)N(C)C2=O (stereo not drawn)
 : 14% | 7%
CCOc1ccc(-c2oc3ccc(C)cc3c(=O)c2O)cc1
 : 5% | -7%
FC(F)(F)c1cccc(-c2ccc(CNC3CC3)o2)c1
 : 13% | -1%
COCCN1Cc2cccc(C(=O)Nc3ccc(C)c(C)c3)c2C1=O
 : 22% | 0%
CCc1cccc(C)c1NC(=O)C1CCN(S(=O)(=O)c2cc(Br)cc3c2N(C(C)=O)CC3)CC1
 : -6% | 7%
COc1cc(OC)c(C(=O)Nc2ccc3oc(C)nc3c2)cc1OC
 : 49%[activator] | 2%
CCOc1ccc(NC(=O)C(C)C)c2cccnc12
 : -6% | -9%
COc1ccc(NC(=O)C(Cc2c[nH]c3ccccc23)NC(=O)OC(C)(C)C)cc1 (stereo not drawn)
 : -2% | 66%[activator]
CCc1ccc(CNC(=O)c2cnc3sc4cc(OC)ccc4n3c2=O)cc1
 : -9% | -2%
COc1nn(C)c2nc(C)c(CCC(=O)NC(C)C3CC3)c(C)c12 (stereo not drawn)
 : 19% | 3%
Cc1oc(-c2ccccc2Cl)cc1C(=O)Nc1nccs1
 : 40%[activator] | 2%
O=C(NC1CCCC1)c1cc(Sc2cccc(Cl)c2)nc2ccccc12
 : 3% | 78%[activator]
Cc1cc(=O)oc2cc(NC(=O)Cc3cccc(F)c3)ccc12
 : 15% | -6%
COc1ccccc1NC(=O)Cn1c(=O)n(CC(=O)NCc2ccccc2Cl)c(=O)c2sccc21
 : 24% | 0%

# Next part.
# Value order: StopGo FLuc | 2A Renilla
CCN(C(=O)Cn1c(=O)nc(-c2ccccc2)c2cc(Cl)ccc21)c1cccc(C)c1
 : 13% | 13%
Cc1oc(-c2ccccc2)nc1CC(=O)N1CCCC(C(F)(F)F)C1 (stereo not drawn)
 : 0% | 9%
COc1ccc(C(=O)Nc2cnc3ccccc3c2)cc1OC
 : 170%[activator] | 43%[activator]
CCCCOC(=O)/C(C#N)=C/c1c[nH]c2ccccc12
 : 169%[activator] | 11%
O=C(CCCOC(=O)c1cc(Cl)ccc1Cl)c1ccc(Br)cc1
 : 3% | 2%
CC(C)CNC(=O)CCc1cccnc1
 : -5% | -1%
N#Cc1ccc(-c2ccccc2)nc1SCC(=O)Nc1cccc(Cl)c1
 : 15% | 27%
